# Screening results from PubChem BioAssay.
# Vaccinia stage – Vaccinia orthopox stage-specific inhibition | AID 1053133 | Vaccinia-infected cells, mCherry/Venus stage reporter fluorescence; stronger effect = lower value; some inactives read as strong as hits | activity change (mCherry), % (test concentration not listed) | hit rate 0.01% among 89,000;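 active = mCherry past -33% and 40 or more points under the early reporter, replicates agreeing; inconclusive = past -33% without that gap or agreement; tested in A549 cells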;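 also: scaled between vehicle wells and reference inhibitor wells; 23 nL library stock went into each well; one replicate is shown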
# Vaccinia stage Venus – second read-out of Vaccinia stage, no call of its own (marks repeat the call); activity change (Venus), %; measured here: Venus reporter, other viral stage;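 negative = less Venus signal; first of two replicates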
# The depositor's hits bear a star; u = inconclusive; x = no result given; & = joins results of further samples. The list is partial (hit frequency here may not be typical).
SMILES,Vaccinia stage,Vaccinia stage Venus
O=C(C[C@H]1CC[C@@H]2[C@H](COC[C@@H](O)CN2Cc2cc(F)ccc2F)O1)NCc1ccc(F)cc1,4.8,2.3
C[C@@H]1CN([C@H](C)CO)C(=O)c2cc(NS(=O)(=O)c3cn(C)cn3)ccc2O[C@@H](C)CCCCO[C@H]1CN(C)C(=O)Nc1ccccc1,30.0,20.4
CN(C)C(=O)c1cccc(-c2ccccc2[C@H]2[C@@H](C#N)N(C(=O)C3CCCCC3)[C@H]2CO)c1,-23.2,-22.1
C[C@@H]1CN([C@H](C)CO)C(=O)c2cc(NC(=O)c3ccccc3)ccc2O[C@@H](C)CCCCO[C@H]1CN(C)C(=O)CCC(F)(F)F,-32.9,-26.6
COC(=O)c1ccc(CN2CC(=O)N3[C@H](CO)[C@@H](c4ccc(-c5ccccc5F)cc4)[C@H]3C2)cc1,6.3,-1.4
C[C@@H]1CCCCO[C@H](CN(C)C(=O)Nc2ccc(C(F)(F)F)cc2)[C@H](C)CN([C@@H](C)CO)C(=O)c2cc(NC(=O)Nc3ccc(F)cc3)ccc2O1,-7.6,4.5
Cc1noc(C)c1NC(=O)Nc1ccc2c(c1)C(=O)N([C@@H](C)CO)C[C@@H](C)[C@H](CN(C)S(=O)(=O)c1ccccc1)OCCCC[C@@H](C)O2,8.8,-0.9
Cc1ccc(S(=O)(=O)Nc2ccc3c(c2)CC(=O)N([C@@H](C)CO)C[C@H](C)[C@@H](CN(C)Cc2ccccc2)O3)cc1,-12.3,-13.0
COc1ccc(NC(=O)N(C)C[C@H]2Oc3ccc(NC(=O)C4CC4)cc3C(=O)N([C@@H](C)CO)C[C@H]2C)cc1,8.1,1.9
CC=Cc1ccc2n(c1=O)C[C@H]1[C@H](CO)[C@@H](C(=O)NCc3ccc4c(c3)OCO4)[C@@H]2N1C(=O)CC (mixture of isomers),3.1,9.8
CC(C)CC#Cc1cnc2c(c1)C(=O)N([C@@H](C)CO)C[C@H](C)[C@H](CN(C)C(=O)Nc1ccccc1F)O2,-16.6,-18.1
CCCNC(=O)Nc1ccc2c(c1)C(=O)N(C)[C@@H]1CC[C@@H](CC(=O)NCCCN(C)C)O[C@@H]1CO2,-1.9,1.7
C[C@@H]1CN([C@H](C)CO)C(=O)c2cc(NC(=O)Nc3ccccc3)ccc2O[C@H]1CN(C)C,19.5,9.8
COc1ccc(S(=O)(=O)N(C)C[C@@H]2OCCCC[C@H](C)Oc3ccc(NC(=O)Nc4ccc(C(F)(F)F)cc4)cc3C(=O)N([C@@H](C)CO)C[C@@H]2C)cc1,-19.0,-1.0
C[C@H](CO)N1C[C@H](C)[C@@H](CN(C)C(=O)c2ccc3c(c2)OCO3)Oc2ncc(C#Cc3ccccc3F)cc2C1=O,u,x
COc1cccc(S(=O)(=O)N[C@H]2C=C[C@@H](CC(=O)NCc3ccccc3)O[C@@H]2CO)c1,15.3,8.4
COc1ccc(C#Cc2ccc([C@H]3[C@H]4CN(C(=O)C5CCOCC5)CC(=O)N4[C@H]3CO)cc2)cc1,-32.6,-47.4
CC(C)C#Cc1ccc([C@@H]2[C@H](CO)N3C(=O)CN(C(=O)c4ccccn4)C[C@@H]23)cc1,13.0,-2.0
COc1ccc2c3c(n(C)c2c1)[C@H](CO)N(C(=O)CC1CC1)CC31CN(Cc2ccccc2)C1,-21.3,-12.3
C[C@@H]1CN([C@@H](C)CO)C(=O)c2cccc(NC(=O)Nc3ccc(F)cc3)c2O[C@H]1CN(C)S(=O)(=O)c1ccc(Cl)cc1,-9.4,-6.8
O=C(C[C@H]1C=C[C@H](NC(=O)c2ccc(F)cc2)[C@H](CO)O1)NCCc1ccccc1,5.1,-0.1
C[C@H](CO)N1C[C@H](C)[C@@H](CN(C)S(=O)(=O)c2ccccc2)Oc2ncc(C#CC3CCCCC3)cc2C1=O,u,x
O=C(C[C@@H]1CC[C@@H]2[C@H](COC[C@@H](O)CN2CC2CC2)O1)NCc1ccc(Cl)cc1,-2.6,1.7
C[C@@H]1CCCCO[C@@H](CN(C)C(=O)Cc2ccccc2)[C@@H](C)CN([C@H](C)CO)C(=O)c2cc(NC(=O)c3ccncc3)ccc2O1,22.8,6.3
O=C(NCc1ccccc1)[C@H]1[C@H](CO)[C@H]2Cn3c(cccc3=O)[C@@H]1N2C(=O)CC1CC1,1.3,-0.1
SMILES,Vaccinia stage,Vaccinia stage Venus
C[C@@H]1CN([C@H](C)CO)C(=O)Cc2cc(NS(C)(=O)=O)ccc2O[C@H]1CN(C)Cc1ccncc1,4.7,7.4
CC(=O)N1CC(=O)N2[C@H](C1)[C@@H](c1ccc(C#CC(C)C)cc1)[C@@H]2CO,16.7,4.2
C[C@H]1CN([C@@H](C)CO)C(=O)Cc2cc(NS(=O)(=O)c3cn(C)cn3)ccc2O[C@@H]1CN(C)S(C)(=O)=O,10.5,6.7
CC(=O)NC[C@H]1[C@H](c2ccc(-c3cccnc3)cc2)[C@@H](CO)N1C(=O)C1CC1,8.6,5.3
CC(C)C#Cc1ccc2c(c1)O[C@H](CN(C)C(=O)c1cccc(F)c1)[C@H](C)CN([C@@H](C)CO)S2(=O)=O,-33.6,-30.4
COc1ccc(NC(=O)Nc2ccc3c(c2)CC(=O)N([C@H](C)CO)C[C@H](C)[C@H](CN(C)C)O3)cc1,9.6,13.7
O=C(Cc1ccncc1)N1CCCCN2[C@H](C1)[C@@H](c1ccc(C#Cc3ccccc3F)cc1)[C@@H]2CO,-16.5,-4.8
C[C@@H]1CN([C@@H](C)CO)C(=O)c2cc(NS(=O)(=O)c3ccc(F)cc3)ccc2O[C@@H]1CN(C)C(=O)NC1CCCCC1,7.4,9.0
CC(=O)N(C)C[C@@H]1Oc2ncc(-c3ccccc3F)cc2C(=O)N([C@H](C)CO)C[C@H]1C,13.5,9.7
N#C[C@H]1[C@H](c2ccccc2)[C@H](CO)N1C(=O)C1CCCC1,1.2,-3.6
CC(C)NC(=O)N(C)C[C@@H]1Oc2ncc(C3=CCCCC3)cc2C(=O)N([C@@H](C)CO)C[C@@H]1C,16.6,9.8
CCS(=O)(=O)N1CC(=O)N2[C@H](C1)[C@H](c1ccc(-c3ccc(F)cc3)cc1)[C@@H]2CO,-8.1,-17.9
CNC[C@@H]1OCCCC[C@@H](C)Oc2ccc(NC(=O)Nc3c(C)noc3C)cc2C(=O)N([C@H](C)CO)C[C@@H]1C,12.8,7.8
C[C@H](CO)N1C[C@H](C)[C@@H](CN(C)C(=O)Nc2cccc3ccccc23)Oc2ccc(NS(=O)(=O)c3ccc(F)cc3)cc2C1=O,24.1,14.6
COc1ccc2c3c(n(C)c2c1)[C@H](CO)N(C(=O)c1ccccc1)CC31CCN(C)CC1,-25.2,-12.3
COc1ccc(NC(=O)N(C)C[C@@H]2Oc3c(NS(=O)(=O)c4cccs4)cccc3C(=O)N([C@@H](C)CO)C[C@H]2C)cc1,15.7,12.1
C[C@H](CO)N1C[C@H](C)[C@@H](CN(C)C(=O)c2ccc(F)cc2)Oc2ncc(C#CC3CC3)cc2C1=O,7.9,4.5
CC(=O)N(C)C[C@@H]1Oc2cc(-c3ccc(C)cc3)ccc2S(=O)(=O)N([C@@H](C)CO)C[C@@H]1C,-13.8,-21.1
COCC(=O)N1[C@H](CO)[C@@H](c2ccccc2C2=CCCCC2)[C@@H]1C#N,4.3,5.6
C[C@H](CO)N1C[C@H](C)[C@@H](CN(C)Cc2ccccc2)Oc2c(NS(=O)(=O)c3cn(C)cn3)cccc2C1=O,2.8,5.1
C[C@H](CO)N1C[C@H](C)[C@H](CN(C)C(=O)Cc2ccncc2)Oc2ncc(C#Cc3ccccc3F)cc2C1=O,-7.5,-14.5
COc1ccc(CNC(=O)C[C@@H]2CC[C@H]3[C@H](COc4ccc(NC(C)=O)cc4C(=O)N3C)O2)cc1,3.3,2.5
COCc1cn(CC[C@H]2CC[C@@H](NC(=O)Nc3ccc(OC)cc3)[C@@H](CO)O2)nn1,5.8,-3.7
CCCNC(=O)C[C@@H]1CC[C@@H]2[C@@H](COc3ccc(NC(=O)NCCC)cc3C(=O)N2C)O1,4.2,1.1
CCS(=O)(=O)N1CCCCN2[C@H](C1)[C@@H](c1ccc(-c3cccc(C#N)c3)cc1)[C@@H]2CO,29.3,13.1

# Arranged by length of the SMILES (falling): 4 of the compounds above.
SMILES,Vaccinia stage,Vaccinia stage Venus
C[C@@H]1CN([C@H](C)CO)C(=O)c2cc(NS(=O)(=O)c3cn(C)cn3)ccc2O[C@@H](C)CCCCO[C@H]1CN(C)C(=O)Nc1ccccc1,30.0,20.4
C[C@H](CO)N1C[C@H](C)[C@@H](CN(C)C(=O)Nc2cccc3ccccc23)Oc2ccc(NS(=O)(=O)c3ccc(F)cc3)cc2C1=O,24.1,14.6
CC(C)C#Cc1ccc2c(c1)O[C@H](CN(C)C(=O)c1cccc(F)c1)[C@H](C)CN([C@@H](C)CO)S2(=O)=O,-33.6,-30.4
C[C@H](CO)N1C[C@H](C)[C@H](CN(C)C(=O)Cc2ccncc2)Oc2ncc(C#Cc3ccccc3F)cc2C1=O,-7.5,-14.5

# A different layout for part of the listing above.
# Second line of a record – Vaccinia stage	Vaccinia stage Venus
COc1ccc(NC(=O)N(C)C[C@@H]2Oc3c(NS(=O)(=O)c4cccs4)cccc3C(=O)N([C@@H](C)CO)C[C@H]2C)cc1
    15.7	12.1
O=C(Cc1ccncc1)N1CCCCN2[C@H](C1)[C@@H](c1ccc(C#Cc3ccccc3F)cc1)[C@@H]2CO
    -16.5	-4.8

# Additional entries follow:
SMILES,Vaccinia stage,Vaccinia stage Venus
C[C@H](CO)N1C[C@H](C)[C@@H](CN(C)C(=O)Nc2cccc3ccccc23)Oc2ccc(NC(=O)C3CCCCC3)cc2CC1=O,-2.8,2.7
COCC(=O)N1CC[C@@H]2[C@H]1c1cc(C#Cc3ccc(F)cc3)ccc1N[C@@H]2CO,5.2,10.2
C[C@H]1CN([C@@H](C)CO)C(=O)c2cc(NS(=O)(=O)c3ccc(F)cc3)ccc2O[C@@H]1CN(C)Cc1ccc2c(c1)OCO2,19.9,7.9
C[C@@H]1CN([C@H](C)CO)C(=O)c2cc(NC(=O)Nc3cccc4ccccc34)ccc2O[C@@H]1CN(C)C(=O)Nc1ccccc1,3.2,7.9
C[C@@H]1CN([C@H](C)CO)S(=O)(=O)c2ccc(Br)cc2O[C@@H]1CN(C)S(=O)(=O)c1ccccc1,u,x
O=C(C[C@@H]1C=C[C@H](NC(=O)c2ccncc2)[C@@H](CO)O1)NCC1CC1,1.3,2.1
C[C@H](CO)N1C[C@H](C)[C@@H](CN(C)C(=O)Nc2cccc3ccccc23)Oc2c(NC(=O)Nc3cccc4ccccc34)cccc2C1=O,-16.6,6.5
O=C(C[C@H]1CC[C@H]2[C@@H](COC[C@H](O)CN2C(=O)Nc2ccc(F)cc2)O1)NC1Cc2ccccc2C1,-29.1,-15.2
O=C(C[C@H]1CC[C@@H]2[C@H](COC[C@H](O)CN2Cc2nccs2)O1)NCc1ccccc1F,5.2,9.9
COc1ccc2c3c([nH]c2c1)[C@@H](CO)N(S(=O)(=O)c1ccc(C)cc1)CC31CN(C(=O)Cc2cccnc2)C1,11.6,-0.3
COc1ccc(S(=O)(=O)Nc2ccc3c(c2)CC(=O)N([C@H](C)CO)C[C@H](C)[C@@H](CN(C)S(=O)(=O)c2ccc(C)cc2)O3)cc1,-26.9,-17.1
C[C@H](CO)N1C[C@H](C)[C@@H](CN(C)S(=O)(=O)c2ccc3ccccc3c2)OCc2cnnn2CCCC1=O,-2.5&-13.9,-3.5&-6.4
CCS(=O)(=O)Nc1ccc2c(c1)C(=O)N(C)C[C@@H](OC)[C@@H](C)CN(Cc1ccccn1)[C@H](C)CO2,10.1,9.3
CC(C)NC(=O)N1CCCCN2[C@@H](CO)[C@@H](c3ccc(C#C[C@H](C)O)cc3)[C@@H]2C1,28.5,10.6
Cc1noc(C)c1NC(=O)Nc1cccc2c1O[C@H](CN(C)C(=O)Nc1ccccc1)[C@H](C)CN([C@@H](C)CO)C2=O,-5.3,5.8
Cc1noc(C)c1NC(=O)Nc1ccc2c(c1)C(=O)N([C@@H](C)CO)C[C@H](C)[C@H](CN(C)Cc1ccccc1)OCCCC[C@@H](C)O2,14.8,-7.1
COc1cccc(-c2ccc3c(c2)O[C@@H](CN(C)C(=O)C2CCC2)[C@H](C)CN([C@H](C)CO)S3(=O)=O)c1,-19.6,-12.5
O=C(Nc1ccccc1)N1CCCCN2[C@H](CO)[C@@H](c3ccc(C#Cc4ccccc4)cc3)[C@H]2C1,u,x
C[C@H](CO)N1C[C@H](C)[C@H](CN(C)S(=O)(=O)c2cn(C)cn2)Oc2c(NS(=O)(=O)c3cccs3)cccc2C1=O,22.9,2.1
COc1ccc(S(=O)(=O)N(C)C[C@@H]2Oc3ncc(C#CC4(O)CCCC4)cc3C(=O)N([C@@H](C)CO)C[C@@H]2C)cc1,-19.0,-11.3
C[C@@H]1CN([C@@H](C)CO)C(=O)c2cc(C#CCN(C)C)cnc2O[C@H]1CN(C)Cc1ccccn1,1.8,-2.7
COc1ccc2c3c(n(C)c2c1)[C@H](CO)N(C(=O)NC1CCCC1)CC31CN(C(C)=O)C1,7.9,3.3
C[C@@H]1CN([C@@H](C)CO)C(=O)c2cc(NS(=O)(=O)c3cccs3)ccc2O[C@@H](C)CCCCO[C@@H]1CN(C)S(=O)(=O)c1ccccc1,-10.2,-2.1
C[C@H]1CN([C@@H](C)CO)C(=O)c2cccc(NC(=O)NC3CCCCC3)c2O[C@H]1CN(C)Cc1ccncc1,-3.5,-0.7
COCC(=O)Nc1ccc2c(c1)C(=O)N(C)[C@H]1CC[C@H](CC(=O)NCCc3ccccc3)O[C@H]1CO2,6.9,5.5
Cc1noc(C)c1NC(=O)N(C)C[C@H]1Oc2ccc(NS(=O)(=O)c3ccc(F)cc3)cc2CC(=O)N([C@@H](C)CO)C[C@@H]1C,-0.1,10.4
COCC(=O)N1CC(=O)N2[C@H](C1)[C@@H](c1ccc(C#CC3CCCC3)cc1)[C@@H]2CO,-4.1,-4.3
C/C=C/c1ccc2c(c1)O[C@H](CN(C)C(=O)c1ccncc1)[C@H](C)CN([C@@H](C)CO)S2(=O)=O,1.7,5.5
CCCC(=O)N1CCC2(CC1)CN(C(=O)C1CCC1)[C@H](CO)c1[nH]c3cc(OC)ccc3c12,4.5,4.0
